Screens as filed in PubChem BioAssay.
D2 PAM – Beta-Arrestin HTS for Positive Allosteric Modulators of the Human D2 Dopamine Receptor: Potentiators. D(2) dopamine receptor (Homo sapiens), P14416. DiscoveRx D2 beta-arrestin cells, luminescence, 90 min; 100% = 57 uM dopamine signal. potentiation, % (no concentration beside the values). 0.23% of 360,000 active; active = potentiation of 50% or more; inconclusive = 30% to 50%; inactive = 30% or less;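 note: compound concentration not given in the record; tested on top of an EC20 dose of dopamine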
Target sequence (P14416 whole entry, looked up): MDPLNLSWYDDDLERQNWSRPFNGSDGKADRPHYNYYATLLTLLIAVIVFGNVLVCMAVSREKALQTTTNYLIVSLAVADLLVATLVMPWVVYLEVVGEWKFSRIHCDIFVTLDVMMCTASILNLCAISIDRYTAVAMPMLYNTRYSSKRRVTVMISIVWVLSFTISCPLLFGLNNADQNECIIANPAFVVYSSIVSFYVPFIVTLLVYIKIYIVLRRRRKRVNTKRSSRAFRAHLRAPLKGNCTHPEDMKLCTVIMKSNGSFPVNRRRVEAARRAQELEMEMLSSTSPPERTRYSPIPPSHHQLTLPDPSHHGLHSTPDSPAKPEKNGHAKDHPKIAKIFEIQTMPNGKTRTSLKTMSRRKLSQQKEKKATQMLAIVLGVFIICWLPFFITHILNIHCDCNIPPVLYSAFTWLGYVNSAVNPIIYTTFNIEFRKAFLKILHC
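PathHunter D2 cells, attached overnight at 37 deg C, received compound in DMSO plus dopamine at EC20 (50 nM final) for 90 min at 37 deg C. Beta-arrestin recruitment was read as luminescence after 1 h with detection reagent at ambient temperature.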
Six1-Eya2 inh – qHTS Assay for Inhibitors of the Six1/Eya2 Interaction. 0.56% of 360,000 active. activity change, % (concentration not given with the values). Homeobox protein SIX1 (Homo sapiens) + Protein phosphatase EYA2 (Homo sapiens), …. AlphaScreen GST-Six1/His-Eya2 binding, biochemical; hits give low values; control for the full effect not named in the record; in the data active = activity change below about -65%; inconclusive = about -30% to -65%; inactive = above about -30%; note: % is set by controls: 0 for no effect and ±100 for the full control effect
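Compounds are tested against tagged Six1 and Eya2 proteins bridged by glutathione donor and nickel acceptor beads; after a one-hour incubation at 37 °C without light, AlphaScreen emission is recorded.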
TRPML1 ag – qHTS for Agonists of the Human Mucolipin Transient Receptor Potential 1 (TRPML1); 0.12% of 410,000 active; activation, % (test concentration not listed); Mucolipin-1 (Homo sapiens), Q9GZU1; TRPML1-expressing cells, Ca2+ dye fluorescence, FDSS; host cell line not named in the record; reference of the full effect not given here; in the data active = activation above about 50%; inconclusive = about 30% to 50%; inactive = below about 30%; note: 0% is about no effect; the text of the record puts the active cut at 80%
Target sequence (Q9GZU1 whole entry, looked up): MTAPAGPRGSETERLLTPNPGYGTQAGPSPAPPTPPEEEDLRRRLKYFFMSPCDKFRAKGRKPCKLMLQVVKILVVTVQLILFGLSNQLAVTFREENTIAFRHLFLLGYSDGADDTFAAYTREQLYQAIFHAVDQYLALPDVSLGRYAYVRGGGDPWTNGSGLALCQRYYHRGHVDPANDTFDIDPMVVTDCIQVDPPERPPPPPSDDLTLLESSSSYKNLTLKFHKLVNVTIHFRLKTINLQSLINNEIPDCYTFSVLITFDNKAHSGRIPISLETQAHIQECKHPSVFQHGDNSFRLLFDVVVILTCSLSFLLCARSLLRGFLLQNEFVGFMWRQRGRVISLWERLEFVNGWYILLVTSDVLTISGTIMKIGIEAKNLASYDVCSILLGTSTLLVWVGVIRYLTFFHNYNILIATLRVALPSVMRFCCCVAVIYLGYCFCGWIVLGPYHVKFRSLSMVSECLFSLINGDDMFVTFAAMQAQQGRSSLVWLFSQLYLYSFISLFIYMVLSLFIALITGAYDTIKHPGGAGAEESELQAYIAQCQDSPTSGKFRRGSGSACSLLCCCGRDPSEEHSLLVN
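TRPML1-DL cells, Tet-induced overnight (~16 h, 37 degrees C), loaded 45-90 min at room temperature with Ca8 no-wash calcium dye plus quencher. FDSS fluorescence: 10 s baseline, compound pin-transfer, 110 s agonist read, then EC80 54-4 (4uM final) and 110 s antagonist read.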
TRPML1 inh – qHTS for Inhibitors of the Human Mucolipin Transient Receptor Potential 1 (TRPML1); Mucolipin-1 (Homo sapiens), Q9GZU1; AID 624415, 2012; TRPML1-inducible cells, Ca2+ dye fluorescence, FDSS; hits give low values; inhibition of EC80 agonist-evoked calcium signal; activity change, negative = inhibition, % (no concentration beside the values); 0.02% of 390,000 active; in the data active means activity change below about -50%; inconclusive means about -30% to -50%; inactive means above about -30%;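 note: stimulus is agonist 54-4 at its EC80 concentration; % is set by controls: 0 for no effect and ±100 for the full control effect; compound concentration not given in the record; the text of the record puts the active cut at -80%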
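TRPML1-DL cells, Tet-induced overnight (~16 h, 37 °C) at 1,500 cells/well, were loaded with Ca8 no-wash dye plus quencher for 45-90 min at room temperature. Compounds were pinned during FDSS kinetic reading; agonist 54-4 at EC80 (4 uM final) then added.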
CtBP-E1A blk – qHTS Assay for Inhibitors of the CtBP/E1A Interaction. CtBP / adenovirus E1A interaction (AlphaScreen). AlphaScreen GST-E1A/His-CtBP binding, 1536-well; hits give low values; control for the full effect not named in the record. activity change, % (concentration not given with the values). 0.49% of 340,000 active; in the data active means activity change below about -65%; inconclusive means about -30% to -65%; inactive means above about -30%; note: % is set by controls: 0 for no effect and ±100 for the full control effect
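Protein mix (5X: 125 nM each GST-E1A, His-CtBP) was incubated with pinned compound 2 h at 37 deg C in dark, in 50 mM Tris pH 8.0 buffer with 300 mM NaCl. Glutathione donor and nickel acceptor beads followed; AlphaScreen signal read after 1 h.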
TRPV1 potentiator – HTS Assay for Compounds that Act as Potentiators of the Vanilloid Receptor 1 | Transient receptor potential cation channel subfamily V member 1 (Homo sapiens), Q8NER1 | 0.02% of 320,000 active | AID 540277, 2011 | potentiation, % at 8.33 µM | TRPV1-expressing cells, Fluo-8 calcium influx, capsaicin EC20 potentiation; host cell line not named in the record; control for the full effect not named in the record; active means potentiation above 80%; inconclusive means 30% to 80%; inactive means below 30%; note: 0% is about no effect
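Fluo-8 calcium influx in TRPV1-expressing cells, kinetic read (ex 480/em 520 nm). Compound added and read 3 min for agonist activity, followed by capsaicin at EC20 final and 2 min further read for enhancement.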
* = called active by the depositor; ? = inconclusive; nt = not tested or not shown; & = joins results of further samples.

1: Cc1cc(C)cc(OCC(=O)NNC(=O)c2ccoc2C)c1
2: Cc1cc(C(=O)COC(=O)Cn2cnc3c2c(=O)n(C)c(=O)n3C)c(C)n1C
3: O=[N+]([O-])c1ccc2nc(NS(=O)(=O)c3ccccc3[N+](=O)[O-])sc2c1
4: Cc1cc(C)nc(N(C#N)Cc2cccc([N+](=O)[O-])c2)n1
5: COc1cc(/C=C(\NC(C)=O)C(=O)Nc2ccc(NC(C)=O)cc2)ccc1OC(C)=O
6: Cc1cccc(/C(N)=N/OC(=O)CCCc2ccccc2)c1
7: COc1cc(OC)c(C2C(C#N)=C(N)OC3=C2C(=O)CC(C)C3)cc1OC (configuration not stated)
8: COc1ccc(CNC(=O)C2CCN(S(=O)(=O)N3CC(C)CC(C)C3)CC2)cc1 (configuration not stated)
9: Cc1cccc(N(C)C(=O)c2cnn(-c3ccccc3)c2C)c1
10: COc1ccccc1CNC(=O)c1oc2ccc(S(=O)(=O)N3CCOCC3)cc2c1C
screen / no.	1	2	3	4	5	6	7	8	9	10
D2 PAM	-8	-9	-9	-7	-5	6	-3	-7	-4	1
Six1-Eya2 inh	5	-2	-14	0	0	65	3	0	1	4
TRPML1 ag	-0.8	-0.8	0.1	0.3	0.7	-0.8	0.4	0.7	1.3	-0.3
TRPML1 inh	1	7	-26	-10	8	-3	5	7	36	3
CtBP-E1A blk	6	-1	-10	nt	0	74	1	1	-12	-15
TRPV1 potentiator	9	7	26	1	3	?	15	9	-23	30

11: COc1ccc(N(CC(=O)O)S(=O)(=O)c2ccc(C)cc2)cc1Cl
12: CCOC(=O)C1CCN(CC(O)COCc2ccc(Cl)cc2)CC1 (configuration not stated)
13: Cc1ccc(OCC(=O)N(Cc2ccc(C)o2)C2CCS(=O)(=O)C2)cc1 (configuration not stated)
14: NNc1nc(-c2ccccc2)cc(-c2ccccc2)n1
15: O=C(C1CCCO1)N1CCN(S(=O)(=O)c2cccc3nsnc23)CC1 (configuration not stated)
16: CC(=O)N1CCN(C(=O)c2ccco2)CC1
17: COCCCN(C(=S)Nc1c(C)cc(C)cc1C)C(C)c1ccncc1 (configuration not stated)
18: CCCNC(=O)COCc1cc(-c2ccc3c(c2)OCO3)on1
19: O=C(c1cccs1)C1C(c2ccc(Br)cc2)NC(=S)NC1(O)C(F)(F)F (configuration not stated)
20: C=CCOc1ccc(Cl)cc1-c1noc(-c2csc([C@H]3C[C@H](O)[C@@H](CO)O3)n2)n1
screen / no.	11	12	13	14	15	16	17	18	19	20
D2 PAM	-1	-19	0	-30	1	-4	-7	-7	-10	-11
Six1-Eya2 inh	2	-2	1	-1	-1	11	5	10	0	-1
TRPML1 ag	1.0	1.2	0.7	4.1	-0.9	0.8	0.7	0.0	-0.1	0.2
TRPML1 inh	-10	-8	-20	14	-4	-12	11	-14	-5	nt
CtBP-E1A blk	1	nt	-3	5	12	6	-3	0	-5	4
TRPV1 potentiator	5	-2	-6	-10	-1	27	-8	-12	-8	nt

2 records drawn at random from the list so far, as already listed:
2: Cc1cc(C(=O)COC(=O)Cn2cnc3c2c(=O)n(C)c(=O)n3C)c(C)n1C
5: COc1cc(/C=C(\NC(C)=O)C(=O)Nc2ccc(NC(C)=O)cc2)ccc1OC(C)=O
screen / no.	2	5
D2 PAM	-9	-5
Six1-Eya2 inh	-2	0
TRPML1 ag	-0.8	0.7
TRPML1 inh	7	8
CtBP-E1A blk	-1	0
TRPV1 potentiator	7	3

Later entries
21: O=C(NCCc1cccc(Cl)c1)c1cccnc1
22: O=C(CN1CCOCC1)Nc1ccc(S(=O)(=O)N2CCCCCC2)cc1
23: Cc1nc2ccccc2nc1Nc1cccc(Cl)c1
24: CCCn1c(=S)[nH]c2cc(C(=O)NCc3ccccc3OC)ccc2c1=O
25: Cc1cc2nc(C3CCCN(C(=S)Nc4ccccc4C)C3)[nH]c2cc1C (configuration not stated)
26: N/C(=N\OC(=O)c1cccc([N+](=O)[O-])c1)c1ccccn1
27: Cc1c(C(=O)NCc2ccc3c(c2)OCO3)oc2ccc(S(=O)(=O)N3CCCCCC3)cc12
28: COc1cc(C(C)=O)ccc1OCC(O)CN1CCN(c2c(C)cccc2C)CC1 (configuration not stated)
29: O=C1CCCC2=C1C(O)(C(F)(F)F)C(=O)N2Cc1ccccc1 (configuration not stated)
30: COc1cccc(C2CC(c3ccc(C)cc3)=NN2C(=O)c2ccccc2F)c1OC (configuration not stated)
screen / no.	21	22	23	24	25	26	27	28	29	30
D2 PAM	-14	-7	-8	0	-27	22	8	-12	5	-7
Six1-Eya2 inh	10	0	12	-1	-1	0	-7	-10	6	-18
TRPML1 ag	0.5	-0.4	3.8	0.0	-0.5	1.6	-0.3	-0.8	0.3	-0.5
TRPML1 inh	-14	-3	-15	9	-9	23	5	15	-4	14
CtBP-E1A blk	-3	5	13	3	-5	-3	-1	-6	6	nt
TRPV1 potentiator	?	-12	1	nt	-2	0	11	-13	?	2

31: FCCCOc1ccc(-c2nccc(-c3ccc(Br)cc3)n2)cc1
32: CCN(CC)C(=O)CSc1nc2[nH]ncc2c(=O)[nH]1
33: COc1ccc(N2C(N)=NC(N)=NC23CCCC3)cc1
34: CCOC(=O)[C@]12CCCC=C1N(Cc1cccc3ccccc13)C(=O)[C@H](CC(=O)N1CCSCC1)C2
35: CCOc1ccc(-c2cc(CCCC(=O)NCc3ccc(C)cc3)no2)cc1
36: Cc1ccc(C(=O)Nc2cccc(-c3ccc(N4CCOCC4)nn3)c2)cc1C
37: COc1ccc2[nH]c(=O)c(CN(CCCN(C)C)C(=O)Nc3ccccc3)cc2c1
38: O=C(CSc1ncn[nH]1)Nc1cc(S(=O)(=O)N2CCCC2)ccc1Cl
39: CS(=O)(=O)c1nc(S(=O)(=O)c2ccc(Cl)cc2)c(NCCCn2ccnc2)s1
40: Cc1ccc(-c2nc(C#N)c(N3CCCCC3)o2)cc1
screen / no.	31	32	33	34	35	36	37	38	39	40
D2 PAM	-1	-1	-14	nt	-6	-23	-13	-7	-11	-8
Six1-Eya2 inh	11	-2	8	-16	-1	?	-8	2	-2	-22
TRPML1 ag	-0.7	4.2	0.6	-0.3	1.5	3.9	0.2	0.3	0.1	-0.8
TRPML1 inh	-11	5	-7	nt	6	-13	-4	-6	-12	-8
CtBP-E1A blk	10	-2	4	-3	3	?	-2	12	2	-25
TRPV1 potentiator	9	3	-1	nt	14	29	-13	0	11	nt

Profiles, looked up by structure. Order of screens: D2 PAM | Six1-Eya2 inh | TRPML1 ag | TRPML1 inh | CtBP-E1A blk | TRPV1 potentiator
`COc1ccc2[nH]c(=O)c(CN(CCCN(C)C)C(=O)Nc3ccccc3)cc2c1` across the screens: -13 | -8 | 0.2 | -4 | -2 | -13
`CCOC(=O)[C@]12CCCC=C1N(Cc1cccc3ccccc13)C(=O)[C@H](CC(=O)N1CCSCC1)C2` across the screens: nt | -16 | -0.3 | nt | -3 | nt
`COc1ccc(N2C(N)=NC(N)=NC23CCCC3)cc1` across the screens: -14 | 8 | 0.6 | -7 | 4 | -1
`CCOc1ccc(-c2cc(CCCC(=O)NCc3ccc(C)cc3)no2)cc1` across the screens: -6 | -1 | 1.5 | 6 | 3 | 14
`Cc1ccc(-c2nc(C#N)c(N3CCCCC3)o2)cc1` across the screens: -8 | -22 | -0.8 | -8 | -25 | nt

Next part
41: CN1C(=O)N(c2cccc3ccccc23)C(n2cncn2)C1(C)C (configuration not stated)
42: CN(C)CCCOc1nn(Cc2ccccc2)c2ccccc12
43: CC1CCc2sc3nc(N4CCN(CCO)CC4)n4ncnc4c3c2C1 (configuration not stated)
44: CC(C)NC(=O)NC(=O)COC(=O)c1ccc(NC(=O)CC#N)cc1
45: O=C(C1CCN(S(=O)(=O)N2CCC3(CC2)OCCO3)CC1)N1CCc2ccccc2C1
46: COc1ccc(/C=N/NS(=O)(=O)c2ccccc2)cc1OC(=O)c1ccc(C)cc1
47: COc1cccc(C(=O)C[n+]2cccc3cc(OC)ccc32)c1
48: COc1ccc(N=CC=C2OC(C)(C)C(C)(C)O2)cc1OC
49: OC[C@@H]1CN(Cc2ccc(-c3ccccc3)cc2)C[C@H](n2cnc3c(N4CCCC4)ncnc32)O1
50: Cc1cc(NC(=O)c2csc([C@@H]3O[C@H](CO)[C@H](O)[C@H](O)[C@H]3O)n2)n(C)n1
screen / no.	41	42	43	44	45	46	47	48	49	50
D2 PAM	-2	-24	-30	-1	-4	-5	2	-8	-1	-2
Six1-Eya2 inh	8	7	-5	-4	19	-10	3	-3	-10	32
TRPML1 ag	-0.3	-0.8	0.9	-0.5	-0.7	-1.5	4.0	-0.5	-0.4	-0.3
TRPML1 inh	-7	-3	23	7	4	-9	-11	-2	nt	nt
CtBP-E1A blk	-3	-9	-1	-3	2	0	-2	nt	-6	6
TRPV1 potentiator	-1	16	-4	0	-1	4	13	-5	nt	nt

51: CCN(CC)S(=O)(=O)c1ccc(NC(=O)Nc2cccc(C(F)(F)F)c2)cc1
52: O=C(COC(=O)C12CC3CC(CC(O)(C3)C1)C2)Nc1ccccc1OC(F)F
53: Cc1cccc(Cn2c(-c3ccc[nH]c3=O)nc3ccccc32)c1
54: COc1cc(C(CC(=O)O)n2cnnn2)ccc1OC(C)C (configuration not stated)
55: O=C(NC(=S)N1CCOCC1)c1cn(-c2ccccc2)nc1-c1ccc(F)cc1
56: COc1ccccc1C(=O)N/C(=C\c1ccc2c(c1)OCO2)C(=O)NCCc1nc2ccccc2[nH]1
57: CCOc1cccc(/C=N/NC(=S)Nc2cc(S(=O)(=O)N3CCOCC3)ccc2N2CCOCC2)c1O
58: O=C(O)CCC(C(=O)O)N1C(=O)C2C3CCC(C3)C2C1=O (configuration not stated)
59: COc1ccc(C2C(C(=O)N3CC(C)CC(C)C3)c3ccccc3C(=O)N2C)cc1 (configuration not stated)
60: O=C(COc1ccccc1C(=O)c1cnn(-c2ccccc2)c1)Nc1ccccc1
screen / no.	51	52	53	54	55	56	57	58	59	60
D2 PAM	23	3	-22	-3	-26	-19	-12	-12	-15	-5
Six1-Eya2 inh	-3	5	-17	5	17	-7	-87*	-2	6	0&3
TRPML1 ag	0.3	-0.6	-0.1	0.4	2.1	0.8	1.8	0.3	-0.4	5.1&0.5
TRPML1 inh	2	10	42	9	-4	5	34	11	0	-10
CtBP-E1A blk	8	12	nt	3	14	-6	-97*	25	6	-17
TRPV1 potentiator	-8	-19	1	-12	-15	0	?	nt	17	7
